total CFTR: total CFTR protein upregulators, primary screen, cell-based, HeLa F508del-CFTR, immunofluorescence, viability (AID 1224863); Cystic fibrosis transmembrane conductance regulator (Homo sapiens); HeLa F508del-CFTR, immunofluorescence total CFTR, 24 h; by the record results were divided by relative cell number; some inactives read as strong as hits; calls, or highest fold increase where a dose series was run; 10,000 tested, 0.1% active; in the data nearly all actives have a first-pass fold increase above 1.5; a few of its hits are not listed in these tables;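 further: total CFTR protein by anti-CFTR immunofluorescence in fixed cells; first pass at 25 µM or 10 µg/mL by library and series up to twice that; 1 = untreated cells; first-pass hits also needed half or more of the cells alive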
total CFTR fold 25 µM: further read-out of total CFTR, marked with its call; fold increase; measured here: primary screen single dose 25 uM; library dosed in µM
total CFTR fold 10 ug/mL: recorded beside total CFTR, whose call it bears; fold increase; measured here: primary screen 10 ug/mL
total CFTR viability 25 µM: further read-out of total CFTR, marked with its call; viability, %; measured here: primary viability 25 uM; library dosed in µM;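 0% = killed and 100% = untreated cells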
total CFTR viability 10 ug/mL: further read-out of total CFTR, marked with its call; viability, %; measured here: primary viability 10 ug/mL;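 0% = killed and 100% = untreated cells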
Starred values were filed as active, the others as inactive; i = inactive; . = not tested or not shown; & = joins results of further samples. Some of the compounds tested, so the mix of outcomes need not match the whole.

SMILES | total CFTR | total CFTR fold 10 ug/mL | total CFTR viability 10 ug/mL | others
O=S(=O)(c1ccc(Cl)s1)N1CCN(CCSc2ccc(F)cc2)CC1 | i | 0.94 | 89
O=c1cc[nH]c(=S)[nH]1 | i | . | . | total CFTR fold 25 µM=1.1;total CFTR viability 25 µM=96
CC(C)(C)C1CCC2(CC1)NC(=O)N(CN1CCCCC1)C2=O (centres undefined) | i | 0.97 | 92
COc1ccc(-c2nc(CS(=O)(=O)C34CC5CC(CC(C5)C3)C4)no2)cc1 | i | 0.87 | 75
CN(C)S(=O)(=O)c1ccc2c(c1)CCN2Cc1ccccc1Br | i | 0.9 | 90
C[C@H]1[C@H](OC(=O)CCC(=O)O)O[C@@H]2OC3(C)CC[C@H]4[C@H](C)CC[C@@H]1[C@@]24OO3 | i | . | . | total CFTR fold 25 µM=0.95;total CFTR viability 25 µM=80
COCCOC(=O)C1=C(C)NC(C)=C(C(=O)OC(C)C)C1c1cccc([N+](=O)[O-])c1 (centres undefined) | i | . | . | total CFTR fold 25 µM=1.1&0.94&0.92;total CFTR viability 25 µM=100&100&100
Cc1cnc(NC(=O)CCOCC(C)C)s1 | i | 1 | 102
CCOc1ccc(S(=O)(=O)N2CCN(S(=O)(=O)N(CC)CC)CC2)cc1 | i | 0.96 | 95
CCn1cc(C(=O)O)c(=O)c2cc(F)c(N3CCN(C)CC3)cc21 | i | . | . | total CFTR fold 25 µM=1.1&1;total CFTR viability 25 µM=89&99
CCC1CCCN(Cc2nc(N)c3ccccc3n2)C1 (centres undefined) | i | 1 | 97
CN(Cc1cc(=O)n2ccccc2n1)CC12CC3CC(CC(C3)C1)C2 | i | 1.1 | 98
OC(c1cc(C(F)(F)F)nc2c(C(F)(F)F)cccc12)C1CCCCN1 (centres undefined) | i | . | . | total CFTR fold 25 µM=1;total CFTR viability 25 µM=81
Cc1cc2oc(=O)cc(CSc3nnnn3C3CC3)c2cc1C(C)C | i | 0.98 | 98
CC(C)C(C)NC(=O)c1cc(Cl)sc1Cl (centres undefined) | i | 1 | 111
CC1(C)C2CC[C@]3(C)C(C(=O)C=C4[C@@H]5C[C@@](C)(C(=O)O)CC[C@]5(C)CC[C@]43C)[C@@]2(C)CC[C@@H]1O (some centres undefined) | i | . | . | total CFTR fold 25 µM=0.98;total CFTR viability 25 µM=91
CC(C(=O)N(C)C1(C#N)CCCCC1)N1CCNC(=O)C1 (centres undefined) | i | 1.1 | 92
CC1CCc2c(sc(NC(=O)COC(=O)C34CC5CC(CC(Br)(C5)C3)C4)c2C#N)C1 (centres undefined) | i | 1 | 88
Fc1cccc(-c2nnn(Cc3coc(-c4ccccc4)n3)n2)c1 | i | 0.88 | 86
Cc1ccc(/C=C/c2nc(=S)n(CN3CCCC(C)C3)[nH]2)o1 (centres undefined) | i | 1 | 91

3 entries picked at random from those above, as already listed:
SMILES | total CFTR | total CFTR fold 10 ug/mL | total CFTR viability 10 ug/mL | others
O=c1cc[nH]c(=S)[nH]1 | i | . | . | total CFTR fold 25 µM=1.1;total CFTR viability 25 µM=96
CCOc1ccc(S(=O)(=O)N2CCN(S(=O)(=O)N(CC)CC)CC2)cc1 | i | 0.96 | 95
CC(C(=O)N(C)C1(C#N)CCCCC1)N1CCNC(=O)C1 (centres undefined) | i | 1.1 | 92

Carrying on.
SMILES | total CFTR | total CFTR fold 10 ug/mL | total CFTR viability 10 ug/mL | others
Cc1nnc(N2C(=O)C(O)=C(C(=O)c3ccco3)C2c2ccc([N+](=O)[O-])cc2)s1 (centres undefined) | i | 1 | 84
CC1Cc2cc(S(N)(=O)=O)ccc2N1Cc1cccc2ccccc12 (centres undefined) | i | 0.79 | 76
c1coc(-c2c3c(nc4c2oc2ccccc24)CCCCCCCCCC3)c1 | i | 1 | 106
Cc1cc(/C=C/c2ccc3cc(N(C)C)ccc3[n+]2C)c(C)n1-c1ccccc1 | i | . | . | total CFTR fold 25 µM=0.78;total CFTR viability 25 µM=43
C=CCN1C(=O)c2ccc(C(=O)OC(C)C(=O)c3ccccc3)cc2C1=O (centres undefined) | i | 1 | 93
Cc1ccc(Br)cc1S(=O)(=O)N(C)C1CCS(=O)(=O)C1 (centres undefined) | i | 1.1 | 102
CC(NCc1cnc(N2CCOCC2)nc1)c1ccc(Cl)s1 (centres undefined) | i | 0.98 | 100
CNCCCc1cc(-c2ccc(F)cc2)n[nH]1 | i | 1 | 103
CC(=O)OCC[N+](C)(C)C | i | . | . | total CFTR fold 25 µM=1.1&0.94;total CFTR viability 25 µM=91&103
O=C(Cn1cc(Br)c(=O)[nH]c1=O)NCCC1CCCCC1 | i | 1.1 | 90
NS(=O)(=O)c1ccc(C(=O)O)cc1 | i | . | . | total CFTR fold 25 µM=1.2;total CFTR viability 25 µM=79
CC(NC(=O)C1CCCN1C(=O)OC(C)(C)C)C1CCCO1 (centres undefined) | i | 1.1 | 88
Cc1cc(N)nc(SCc2cc(C)on2)n1 | i | 1.1 | 88
CCC(NCC(O)COCc1ccccc1Cl)c1ccc(Br)cc1 (centres undefined) | i | 0.85 | 80
CC1CCCCC1NC(=O)C1CCCN(C(=O)N2CCCC2)C1 (centres undefined) | i | 0.99 | 102
COc1ccc2cc(CN(C)C(=O)C3(C)CC3(Cl)Cl)ccc2c1 (centres undefined) | i | 0.94 | 90
O=C(NCCSCc1ccc(Br)s1)C1CCOCC1 | i | 1.1 | 97
CC(=O)c1c(SCC(=O)NCC(F)(F)F)nc(=O)[nH]c1C | i | 1 | 94
Cc1occc1-c1nnc(SC(C(=O)NC(N)=O)C(C)C)o1 (centres undefined) | i | 1.1 | 92
N#CSc1ccc(NS(=O)(=O)c2ccc3c(c2)OCCO3)c(F)c1 | i | 0.91 | 112

Among those listed so far, two contain an aryl methoxy group.
SMILES | total CFTR | total CFTR fold 10 ug/mL | total CFTR viability 10 ug/mL | others
COc1ccc(-c2nc(CS(=O)(=O)C34CC5CC(CC(C5)C3)C4)no2)cc1 | i | 0.87 | 75
COc1ccc2cc(CN(C)C(=O)C3(C)CC3(Cl)Cl)ccc2c1 (centres undefined) | i | 0.94 | 90

New compounds follow
SMILES | total CFTR | total CFTR fold 10 ug/mL | total CFTR viability 10 ug/mL | others
CCOC(=O)c1c(CCCO)cnc2cc(C)nn12 | i | 0.97 | 94
Cc1ccc(C(C)NS(=O)(=O)c2ccc3c(c2)CCCC3)o1 (centres undefined) | i | 0.84 | 73
COc1cc(CNCc2ccc(OCc3ccncc3)cc2)cc(OC)c1OC | i | 1.1 | 90
Cc1nc(CN2CCN(Cn3nc4n(c3=S)CCCCC4)CC2)cs1 | i | 0.93 | 90
CC(c1nc2ccccc2s1)N(C)CN1C(=O)C2CC=CCC2C1=O (centres undefined) | i | 1 | 91
COC(=O)C(C)OC(=O)c1ccc2c(c1)SC1=NS(=O)(=O)CCN12 (centres undefined) | i | 0.92 | 89
CS(=O)(=O)c1ccc(C(O)[C@H](CF)NC(=O)C(Cl)Cl)cc1 (some centres undefined) | i | . | . | total CFTR fold 25 µM=0.98;total CFTR viability 25 µM=108
CN(CCS(=O)(=O)N1CCCC1)S(=O)(=O)c1cccs1 | i | 0.95 | 110
Cc1cc(C)nc(SCC(=O)/C=C2\N(C)c3ccccc3C2(C)C)n1 | i | 0.94 | 105
Cc1cccc(CN2CCN(c3ccc4nnnn4n3)CC2)c1 | i | 0.91 | 92
CCCCCN(C)CCC(O)(P(=O)(O)O)P(=O)(O)O | i | . | . | total CFTR fold 25 µM=1.1&0.87;total CFTR viability 25 µM=93&105
CNC(=O)CCc1ccsc1 | i | 1.1 | 103
N#Cc1nc(C2CC2)oc1N1CCN(C(=O)CCS(=O)(=O)C2CCCC2)CC1 | i | 1.1 | 85
O=C(NC(c1ccccc1)c1ccccc1)C1(c2ccc(Cl)cc2)CC1 | i | 0.92 | 79
C[N+](C)(C)[C@@H](Cc1c[nH]c(=S)[nH]1)C(=O)[O-] | i | . | . | total CFTR fold 25 µM=1.1;total CFTR viability 25 µM=90
CN(CCN1C(=O)CCC1=O)CC(=O)NC(C)(C)C | i | 0.93 | 96
O=C(OCc1ccc([N+](=O)[O-])cc1)C1(c2ccc(F)cc2)CCCC1 | i | 0.91 | 81
O=C(N1CCN(Cc2ccc3c(c2)OCO3)CC1)C1(c2ccc(Cl)cc2)CCCC1 | i | 0.85 | 78
CCNC(=O)COC(=O)c1ccc([N+](=O)[O-])o1 | i | 1 | 99
CC1CC(C)CN(CCCN=C2NS(=O)(=O)c3ccccc32)C1 (centres undefined) | i | 0.94 | 96

As a working copy, part of the list above.
SMILES | total CFTR | total CFTR fold 10 ug/mL | total CFTR viability 10 ug/mL | others
CCNC(=O)COC(=O)c1ccc([N+](=O)[O-])o1 | i | 1 | 99
CC1CC(C)CN(CCCN=C2NS(=O)(=O)c3ccccc32)C1 (centres undefined) | i | 0.94 | 96

Following part
SMILES | total CFTR | total CFTR fold 10 ug/mL | total CFTR viability 10 ug/mL | others
S=c1n(-c2ccccc2)cnn1CN1CCC(c2nc3ccccc3o2)CC1 | i | 0.99 | 96
NC(c1ccc(Br)cc1)C1CCC1 (centres undefined) | i | 0.97 | 89
CC(C#N)Sc1nc(N)cc(N)c1C#N (centres undefined) | i | 1.1 | 88
Cc1ccc(C2NC(=O)NC3=C2C(=O)N(CCCO)C3)cc1 (centres undefined) | i | 1 | 104
CCC(C)(C)NC(=O)C1CCCC1 | i | 1 | 93
OCc1ccc(OCc2cn3ccccc3n2)cc1 | i | 1 | 96
OCCN1CCN(CCCN2c3ccccc3Sc3ccc(C(F)(F)F)cc32)CC1 | i | . | . | total CFTR fold 25 µM=0.63&0.57;total CFTR viability 25 µM=38&12
CN(Cc1ccc(Cl)s1)S(=O)(=O)c1ccc2c(c1)OCCCO2 | i | 0.83 | 87
NCc1ccoc1 | i | 1 | 93
O=S(=O)(O)c1cc(I)c(O)c2ncccc12 | i | . | . | total CFTR fold 25 µM=0.99;total CFTR viability 25 µM=87
CCOC(=O)C1=C(COC(=O)c2cn(C)c3ccccc23)NC(=O)NC1c1ccccc1 (centres undefined) | i | 1.3 | 89
Cc1nnc(NC(=O)CC2CCCC2)s1 | i | 1 | 98
Nc1nc(CN2CCc3ccccc3C2)nc2sc3c(c12)CCCC3 | i | 0.94 | 93
CCN(CC(=O)NC)S(=O)(=O)N(C)C1CCCCC1 | i | 1.1 | 104
CN(CC12CC3CC(CC(C3)C1)C2)C(=O)C1CCN(C(=O)c2ccsc2)CC1 | i | 0.94 | 83
Fc1cccc(-c2nnn(CCc3ccccn3)n2)c1 | i | 1 | 98
COCCOc1ccc(CNS(C)(=O)=O)cc1 | i | 0.97 | 96
CN(C)/N=N/c1nc[nH]c1C(N)=O | i | . | . | total CFTR fold 25 µM=1&1.1&0.96;total CFTR viability 25 µM=84&88&96
O=S(=O)(NC1CCCCCC1)c1ccc(F)c(Cl)c1 | i | 1.1 | 93
CC1CCc2c(sc3ncnc(NC4CCOc5ccccc54)c23)C1 (centres undefined) | i | 0.9 | 93
O=C(OCc1cc(-c2ccco2)on1)C1=Cc2cc(Cl)ccc2OC1 | i | 1.1 | 99
COc1cc2nc(N(C)CCCNC(=O)C3CCCO3)nc(N)c2cc1OC (centres undefined) | i | . | . | total CFTR fold 25 µM=1&0.97&1;total CFTR viability 25 µM=88&105&83
O=[N+]([O-])c1ccc(CSc2nnnn2-c2ccc(OC(F)(F)F)cc2)cc1 | i | 0.93 | 85
CSCC[C@H](NC(=O)C1(c2cccc(F)c2)CCCC1)c1nc2ccccc2[nH]1 | i | 0.94 | 92
CCCCC(CC)CN1CN(CC(CC)CCCC)CC(C)(N)C1 (centres undefined) | i | . | . | total CFTR fold 25 µM=0.62;total CFTR viability 25 µM=3
COc1ccc(-c2noc(CN3C(=O)C(=O)N(C4CCCC4)C3=O)n2)cc1 | i | 0.98 | 97
CCOC(=O)c1sc2nc(CN3CC(C)OC(C)C3)nc(N)c2c1C (centres undefined) | i | 1.1 | 85
Cn1c(SCC(=O)NCCC2=CCCCC2)nc2ccsc2c1=O | i | 0.96 | 100
CCc1nnsc1C(=O)NC1=NCCS1 | i | 1 | 97
N#Cc1c(CN(Cc2cccs2)C2CCS(=O)(=O)C2)cn2ccccc12 (centres undefined) | i | 1.1 | 92
Cc1c(O)c(=O)ccn1C | i | . | . | total CFTR fold 25 µM=1.1;total CFTR viability 25 µM=87
N#CCSc1nccn1-c1cccc(Cl)c1 | i | 1 | 80
CS(=O)(=O)NCC1CCCCN1Cc1nc(-c2ccc(Cl)cc2)no1 (centres undefined) | i | 0.86 | 77
NC(N)=Nc1nc(CSCC/C(N)=N\S(N)(=O)=O)cs1 | i | . | . | total CFTR fold 25 µM=0.98;total CFTR viability 25 µM=92
CN(C(=O)CN(CCO)CC(=O)N(C)C(C)(C)Cc1ccccc1)C(C)(C)Cc1ccccc1 | i | . | . | total CFTR fold 25 µM=1.1;total CFTR viability 25 µM=86
CONC(=O)c1c(C)oc(C)c1C | i | 1.2 | 99
N#Cc1cn(C2CC2)c(=O)n(CC(=O)c2ccc(F)cc2)c1=O | i | 0.96 | 94
O=C(NCc1ccc2c(c1)OCCO2)C12CC3CC(CC(C3)C1)C2 | i | 0.97 | 113

Structural class, the entries above containing a CF3 group.
SMILES | total CFTR | total CFTR fold 10 ug/mL | total CFTR viability 10 ug/mL | others
OC(c1cc(C(F)(F)F)nc2c(C(F)(F)F)cccc12)C1CCCCN1 (centres undefined) | i | . | . | total CFTR fold 25 µM=1;total CFTR viability 25 µM=81
CC(=O)c1c(SCC(=O)NCC(F)(F)F)nc(=O)[nH]c1C | i | 1 | 94
OCCN1CCN(CCCN2c3ccccc3Sc3ccc(C(F)(F)F)cc32)CC1 | i | . | . | total CFTR fold 25 µM=0.63&0.57;total CFTR viability 25 µM=38&12
O=[N+]([O-])c1ccc(CSc2nnnn2-c2ccc(OC(F)(F)F)cc2)cc1 | i | 0.93 | 85

From PubChem
